# HEK293 tox – Cytotoxic Profiling in HEK 293 Cell Line of Diverse Libraries Using Quantitative High-Throughput Screening | HEK 293 viability, ATP luminescence (CellTiter-Glo), 48-72 h | Potency, µM (highest dose often 115 µM), inactives show at the highest dose activity change, negative = cytotoxicity, hits mostly inhibitors | 94,000 tested, 6.6% active | AID 1345083, 2018; further: nearly all actives have a fitted effect of over 60% in size
#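 Luminescence from cellular ATP, measured with CellTiter-Glo, indicates HEK 293 viability. Cells plated at 250 cells/well are treated with compound for 48 or 72 hr at 37 degree Celsius before reagent addition.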
# GPT2 inhibitor – Primary qHTS assay for inhibitors of Glutamate pyruvate transaminase 2 (GPT2); Recombinant GPT2, coupled pyruvate oxidase/HRP Amplex Red fluorescence; Alanine aminotransferase 2 (Homo sapiens), Q8TD30; Potency, µM (doses to about 57.7 µM), for the others: top-dose activity change, negative = inhibition, actives largely listed as inhibitors; 100,000 tested, 0.25% active; further: nearly all actives have a fitted effect of over 60% in size; many of its hits are not listed in these tables
#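 Fluorescence read-out: pyruvate from GPT2 turnover coupled to pyruvate oxidase, HRP and Amplex Red (0.2mM ThPP, 0.2U/mL PO and HRP, 50uM Amplex final). Substrates 250uM a-KG, 2mM L-alanine; enzyme 10ng/uL; 30 min RT.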
# SNCA expr inh – Primary qHTS assay for inhibitors of alpha-synuclein gene (SNCA) expression | 140,000 tested, 0.17% active | HEK-293 SNCA-luciferase knock-in, luminescence, 24 h | Potency, µM (series often up to 57.2 µM), for inactives: top-dose activity change, negative = inhibition, hits mostly inhibitors;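 further: plate controls were DMSO cells for no effect and cell-free wells for full effect; nearly all actives have a fitted effect of over 45% in size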
# FLuc inh – Firefly luciferase inhibition profiling of diverse chemical library using quantitative high-throughput screening. 76,000 tested, 2.5% active. AID 1347043, 2019. purified P. pyralis luciferase, luminescence, biochemical. Potency, µM (top dose mostly 115 µM), for the others: top-dose activity change, negative = inhibition, most hits filed as inhibitors; further: nearly all actives have a fitted effect of over 65% in size
# Target sequence (P08659 whole entry, looked up): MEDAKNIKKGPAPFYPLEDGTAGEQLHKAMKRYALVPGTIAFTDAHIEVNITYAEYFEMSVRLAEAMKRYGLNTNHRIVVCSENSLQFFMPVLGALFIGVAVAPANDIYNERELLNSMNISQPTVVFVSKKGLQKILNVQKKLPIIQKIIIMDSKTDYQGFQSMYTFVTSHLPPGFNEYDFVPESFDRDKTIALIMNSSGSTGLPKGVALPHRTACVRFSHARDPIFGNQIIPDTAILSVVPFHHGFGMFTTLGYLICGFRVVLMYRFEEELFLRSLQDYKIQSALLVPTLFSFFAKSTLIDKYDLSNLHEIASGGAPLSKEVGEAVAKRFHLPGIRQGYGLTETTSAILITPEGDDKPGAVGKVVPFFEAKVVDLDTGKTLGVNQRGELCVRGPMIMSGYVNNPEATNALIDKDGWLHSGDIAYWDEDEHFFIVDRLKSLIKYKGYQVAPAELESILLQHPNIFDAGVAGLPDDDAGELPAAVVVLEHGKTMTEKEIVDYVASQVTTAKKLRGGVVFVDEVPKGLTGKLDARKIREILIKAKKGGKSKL
#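 Cell-free enzyme assay, 10nM P. pyralis luciferase, luciferin and ATP each at 10uM. Inhibition profiled over a 6-point titration, read as luminescence.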
# SNCA viab count – GF-AFC viability counterscreen for inhibitors of alpha-synuclein gene (SNCA) expression; HEK-293-SNCA-luc viability, GF-AFC fluorescence, 24 h; 150,000 tested, 0.12% active; Potency, µM (top dose mostly 57.1 µM), for the others: top-dose activity change, negative = cytotoxicity, usual class: cytotoxic; AID 1671193, 2021;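 further: 0% = DMSO-treated cells and -100% = medium-only wells without cells; nearly all actives have a fitted effect of over 30% in size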
#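 Cytotoxicity counterscreen: after 24 h compound treatment of genome-edited SNCA-luciferase HEK-293 cells, live-cell protease substrate GF-AFC read by fluorescence after 30 min; activity scaled between DMSO (0%) and medium-only (-100%), curves Hill-fitted.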
# 3T3 cytotox – Cytotoxic Profiling in NIH 3T3 Cell Line of Diverse Libraries Using Quantitative High-Throughput Screening | 94,000 tested, 4.3% active | Potency, µM (highest dose often 96.7 µM), without a hit: at the highest dose activity change, negative = cytotoxicity, most hits filed as inhibitors | NIH 3T3 viability, CellTiter-Glo ATP luminescence, 48-72 h | AID 1345082, 2018; further: nearly all actives have a fitted effect of over 55% in size
#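 Cells were seeded at 400 per well, treated with pin-transferred compound, and kept 48 or 72 hr at 37 °C before CellTiter-Glo addition and luminescence imaging of cellular ATP.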
# An asterisk follows results filed as active; i = inactive; ? = inconclusive; . = no result given; [ ] = dose if it differs, or a comment. The call rests on the fitted dose curve; in most records, active means well fitted curve in the direction sought with a large enough effect; inconclusive means small, poorly fitted or top-dose-only effect, or another doubt; inactive means no such curve, though single readings can be large; an effect the other way counts as inactive or inconclusive. Unless noted, on the % scale 0 is the no-effect control and ±100 the full control effect; potency means the concentration at half of the fitted maximal effect. Not all compounds are listed. The share of hits here may be higher or lower than overall.
# Short forms – A = HEK293 tox; B = GPT2 inhibitor; C = SNCA expr inh; D = FLuc inh; E = SNCA viab count; F = 3T3 cytotox
> O=C(NCc1ccc2c(c1)OCO2)c1cnc2c(c1)N(Cc1ccccc1)CCC2
  A: ?; B: i; C: -5%[87.6 µM]; D: -2%[172 µM]; E: 1%[87.6 µM]; F: 50µM*
> Cc1ccc(-n2c(=O)c3c4c(sc3n(Cc3cccc(Cl)c3)c2=O)CCC4)cc1C
  A: .; B: .; C: 8%; D: .; E: 6%; F: .
> COc1ccc(C(=O)N[C@H](c2cnn(C)c2)C2CC(O)C2)c(F)c1F (stereo partly specified)
  A: 0%; B: -1%; C: -6%; D: 0%; E: 1%; F: -15%
> Cc1cccc(OCCCC(=O)Nc2sc3c(c2C(N)=O)CCC(C)C3)c1 (stereo unspecified)
  A: .; B: .; C: 5%; D: .; E: 9%; F: .
> COc1ccccc1-c1[nH]nc2ncc(-c3ccccc3)nc12
  A: .; B: 4%[88.5 µM]; C: -14%[87.6 µM]; D: .; E: ?; F: .
> Cc1ccc(CN2C[C@@H](NC(=O)c3cccnc3)C[C@H]2CO)o1
  A: -1%; B: i; C: -6%; D: -10%; E: 2%; F: i
> CCc1nn2c(-c3ccccc3OC)ccnc2c1-c1ccccc1
  A: .; B: .; C: -17%; D: .; E: 5%; F: .
> O=C1Nc2ccccc2C12CN(Cc1ccc(F)cc1)C2
  A: ?; B: 1%[88.5 µM]; C: 49%[activator][87.6 µM]; D: .; E: -6%[87.6 µM]; F: -17%[138 µM]
> Cc1ccc2nc(NCc3ccc(F)cc3)c3nncn3c2c1
  A: .; B: .; C: 9%; D: .; E: -8%; F: .
> COc1ccc(C(=O)NCC(c2cccnc2)N2CCN(c3ccccc3F)CC2)cc1OC (stereo unspecified)
  A: .; B: .; C: -4%; D: .; E: -4%; F: .
> CCCCc1ccc(NC(=O)c2cc3c(=O)n4ccccc4nc3n2C)cc1
  A: .; B: .; C: -16%; D: .; E: 10%; F: .
> COc1ccccc1NC(=O)CSc1oc(-c2ccccc2)nc1S(=O)(=O)c1ccc(C)cc1
  A: .; B: .; C: -29%; D: .; E: -3%; F: .
> CC(C)NC(=O)c1nc(-c2cc(Cl)cc(Cl)c2)c2ccccn12
  A: -3%; B: 0%; C: -7%; D: -1%; E: -6%; F: -25%
> CN(C)C(=O)c1nc(-c2ccc(Cl)cc2)c2ccccn12
  A: 100µM*; B: i; C: ?; D: ?; E: -7%[87.6 µM]; F: ?
> O=C(c1nc(-c2ccsc2)c2cnccn12)N1CCCC1
  A: i; B: 0%[88.5 µM]; C: -14%[87.6 µM]; D: -10%[172 µM]; E: 14%[87.6 µM]; F: -13%[138 µM]

# Part of the list above in order of formula weight, smallest number first.
# Short forms – A = HEK293 tox; B = GPT2 inhibitor; C = SNCA expr inh; D = FLuc inh; E = SNCA viab count; F = 3T3 cytotox
> O=C1Nc2ccccc2C12CN(Cc1ccc(F)cc1)C2
  A: ?; B: 1%[88.5 µM]; C: 49%[activator][87.6 µM]; D: .; E: -6%[87.6 µM]; F: -17%[138 µM]
> O=C(c1nc(-c2ccsc2)c2cnccn12)N1CCCC1
  A: i; B: 0%[88.5 µM]; C: -14%[87.6 µM]; D: -10%[172 µM]; E: 14%[87.6 µM]; F: -13%[138 µM]
> CN(C)C(=O)c1nc(-c2ccc(Cl)cc2)c2ccccn12
  A: 100µM*; B: i; C: ?; D: ?; E: -7%[87.6 µM]; F: ?
> COc1ccccc1-c1[nH]nc2ncc(-c3ccccc3)nc12
  A: .; B: 4%[88.5 µM]; C: -14%[87.6 µM]; D: .; E: ?; F: .
> Cc1ccc2nc(NCc3ccc(F)cc3)c3nncn3c2c1
  A: .; B: .; C: 9%; D: .; E: -8%; F: .
> Cc1ccc(CN2C[C@@H](NC(=O)c3cccnc3)C[C@H]2CO)o1
  A: -1%; B: i; C: -6%; D: -10%; E: 2%; F: i
> CC(C)NC(=O)c1nc(-c2cc(Cl)cc(Cl)c2)c2ccccn12
  A: -3%; B: 0%; C: -7%; D: -1%; E: -6%; F: -25%
> COc1ccc(C(=O)N[C@H](c2cnn(C)c2)C2CC(O)C2)c(F)c1F (stereo partly specified)
  A: 0%; B: -1%; C: -6%; D: 0%; E: 1%; F: -15%
> O=C(NCc1ccc2c(c1)OCO2)c1cnc2c(c1)N(Cc1ccccc1)CCC2
  A: ?; B: i; C: -5%[87.6 µM]; D: -2%[172 µM]; E: 1%[87.6 µM]; F: 50µM*
> Cc1ccc(-n2c(=O)c3c4c(sc3n(Cc3cccc(Cl)c3)c2=O)CCC4)cc1C
  A: .; B: .; C: 8%; D: .; E: 6%; F: .
> COc1ccc(C(=O)NCC(c2cccnc2)N2CCN(c3ccccc3F)CC2)cc1OC (stereo unspecified)
  A: .; B: .; C: -4%; D: .; E: -4%; F: .
> COc1ccccc1NC(=O)CSc1oc(-c2ccccc2)nc1S(=O)(=O)c1ccc(C)cc1
  A: .; B: .; C: -29%; D: .; E: -3%; F: .

# Later entries:
# Short forms – A = HEK293 tox; B = GPT2 inhibitor; C = SNCA expr inh; D = FLuc inh; E = SNCA viab count; F = 3T3 cytotox
> O=C(NCC(c1cccnc1)N1CCc2ccccc21)C(=O)Nc1ccccc1F (stereo unspecified)
  A: .; B: .; C: 32%[activator]; D: .; E: 21%; F: .
> Cc1nc(-n2nc(C)c(CCC(C)C)c2C)sc1C(=O)Nc1cccc(Cl)c1
  A: .; B: .; C: 6%; D: .; E: 3%; F: .
> CN(C)c1cccc(-c2cnc(Nc3cccnc3)c3c2CCO3)c1
  A: 63µM*; B: 2%[88.5 µM]; C: 30%[activator][87.6 µM]; D: 40µM*; E: -24%[87.6 µM]; F: 50µM*
> CCOC(=O)c1ccc(NC(=O)c2c(NC(C)=O)sc3c2CCC(C)C3)cc1 (stereo unspecified)
  A: .; B: .; C: -14%; D: .; E: 6%; F: .
> COc1cccc(C2=NS(=O)(=O)N(C)C(C(=O)Nc3ccccc3SC)=C2)c1
  A: .; B: .; C: 23%; D: .; E: -3%; F: .
> CCSc1oc(-c2ccc(F)cc2)nc1S(=O)(=O)c1ccc(C)cc1
  A: .; B: .; C: -21%; D: .; E: ?; F: .
> Cc1cc(C)cc(Nc2nc(C)cc(=O)n2CC(=O)Nc2cccc(C(F)(F)F)c2)c1
  A: -10%; B: -9%; C: -15%; D: -6%; E: -19%; F: ?
> CN1CCOc2c(C(=O)NCCN3CCNC3=O)cc(-c3cccc4[nH]ccc34)cc21
  A: ?; B: i; C: 6%[87.6 µM]; D: -22%[172 µM]; E: 2%[87.6 µM]; F: -25%[138 µM]
> COc1ccc(CCNC(=O)C(C)n2c(=O)cc(C(F)(F)F)c3c(C)nn(C)c32)cc1OC (stereo unspecified)
  A: .; B: .; C: -13%; D: .; E: -4%; F: .
> CC1=C(C(=O)Nc2cccnc2)C(c2cccc(Br)c2)n2nc(SCc3ccccc3)nc2N1 (stereo unspecified)
  A: .; B: .; C: 10%; D: .; E: 6%; F: .
> O=C1Nc2ccccc2C12CCN(Cc1ccccc1)C2 (stereo unspecified)
  A: -26%[172 µM]; B: i; C: 13%[87.6 µM]; D: .; E: 3%[87.6 µM]; F: -12%[138 µM]
> COc1ccc(CN2C(=O)N(c3ccc(F)cc3)C(=O)C2CC(=O)Nc2ccccc2)cc1 (stereo unspecified)
  A: .; B: .; C: 2%; D: .; E: 2%; F: .
> Cc1nn(C)c2c1c(C(F)(F)F)cc(=O)n2C(C)C(=O)NCCc1ccccc1 (stereo unspecified)
  A: .; B: .; C: -24%; D: .; E: -6%; F: .
> Cc1ccccc1C(=O)NNc1ncnc2c1cnn2-c1cccc(Cl)c1
  A: .; B: .; C: -11%; D: .; E: -5%; F: .
> COc1ccc(-c2[nH]nc3ncc(C(=O)N(C)Cc4ccccc4)nc23)c(C)c1
  A: ?; B: -5%[88.5 µM]; C: -19%[87.6 µM]; D: -2%[172 µM]; E: ?; F: -91%[138 µM]
> CC1Cc2cc(S(=O)(=O)NCc3ccc(F)cc3)ccc2N1C(=O)C1CCC1 (stereo unspecified)
  A: .; B: .; C: 8%; D: .; E: ?; F: .
> Cc1noc(C)c1-c1cc(-c2ccc(N3CCOCC3)nc2)cn2cncc12
  A: ?; B: -20%[88.5 µM]; C: 7%[87.6 µM]; D: ?; E: -8%[87.6 µM]; F: ?
> CCN(CC)CCNC(=O)C(=O)NCC(c1ccc2c(c1)OCO2)N1CCOCC1 (stereo unspecified)
  A: .; B: .; C: -29%; D: .; E: 9%; F: .
> COCC(C)NC(=O)C1=CC(c2ccc3c(c2)OCO3)=NS(=O)(=O)N1C (stereo unspecified)
  A: .; B: .; C: 20%; D: .; E: -12%; F: .
> COCCCNC(=O)C(=O)NCC(c1ccc2c(c1)OCO2)N1CCOCC1 (stereo unspecified)
  A: .; B: .; C: 6%; D: .; E: 16%; F: .
> COc1cccc(-c2cc(C(F)(F)F)nc(NCCc3ccc(OC)c(OC)c3)n2)c1
  A: .; B: .; C: 11%; D: .; E: 27%; F: .
> Cc1ccccc1-c1cc(C(=O)NCCN2CCNC2=O)c2c(c1)N(C)CCO2
  A: ?; B: 1%[88.5 µM]; C: -17%[87.6 µM]; D: -5%[172 µM]; E: -11%[87.6 µM]; F: ?
> N#CC1CCN(C(=O)c2nc(-c3ccccc3)c3ccccn23)CC1
  A: ?; B: i; C: 23%[87.6 µM]; D: -12%[172 µM]; E: -3%[87.6 µM]; F: ?

# Compound activity deposited in PubChem by National Center for Advancing Translational Sciences (NCATS).
